Compound activity as filed in PubChem.
D2 potentiator: human D2 receptor positive allosteric modulation; DiscoveRx D2 beta-arrestin cells, luminescence, 90 min; 100% = 57 uM dopamine signal; AID 624464; P14416; potentiation, % (test concentration not listed); 360,000 tested, 0.23% active; active = potentiation of 50% or more; inconclusive = 30% to 50%; inactive = 30% or less;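 note: compound concentration not given in the record; tested on top of an EC20 dose of dopamine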
Target sequence (P14416 whole entry, looked up): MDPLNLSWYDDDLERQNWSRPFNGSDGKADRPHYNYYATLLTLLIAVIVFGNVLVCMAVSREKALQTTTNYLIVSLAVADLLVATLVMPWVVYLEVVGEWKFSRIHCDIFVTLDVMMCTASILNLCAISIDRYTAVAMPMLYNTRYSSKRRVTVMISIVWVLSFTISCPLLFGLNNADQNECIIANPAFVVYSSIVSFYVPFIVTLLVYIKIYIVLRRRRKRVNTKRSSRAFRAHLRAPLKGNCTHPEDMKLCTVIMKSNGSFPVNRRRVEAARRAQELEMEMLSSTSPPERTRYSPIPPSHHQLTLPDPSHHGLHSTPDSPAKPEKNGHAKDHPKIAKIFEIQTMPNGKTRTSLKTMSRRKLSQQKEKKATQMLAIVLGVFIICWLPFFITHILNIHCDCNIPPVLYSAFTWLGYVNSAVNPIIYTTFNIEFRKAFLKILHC
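PathHunter beta-arrestin assay in DiscoveRx D2 cells. Compounds were added with an EC20 of dopamine (50 nM final) for 90 min at 37 deg C. Luminescence was read 1 h after detection reagent, with 57 uM dopamine as the EC100 control.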
gsp agonist: agonists of gsp mutant (McCune-Albright syndrome); gsp mutant cells, cAMP HTRF, 30 min; control for the full effect not named in the record; Potency, µM (top dose mostly 76.9 µM), without a hit: at the top dose activation (cAMP increase), usual class: activators; 340,000 tested, 0.13% active; AID 624287; active = well fitted activation curve with a large enough effect; inconclusive = small, poorly fitted or top-dose-only effect, or another doubt; inactive = no such curve, though single readings can be large or run the other way; cell line not stated here;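 note: phosphodiesterase inhibitor Ro 20-1724 added with compounds to block cAMP breakdown; potency is the fitted concentration of half-maximal effect; nearly all actives have a fitted effect of over 60% in size; about a fifth of the inactives were tested at one dose only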
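Cells in DMEM/10% FBS with G418 were pretreated with compounds in DMSO plus […] (300 uM stock) for 30 min at 37C. cAMP was measured by HTRF (cAMP-d2 plus anti-cAMP antibody-K) after 30 min at room temperature.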
gsp antag: antagonizes gsp, the McCune-Albright syndrome mutation; Potency, µM (doses to about 76.9 µM), for the others: at the top dose activity change, negative = inhibition, actives largely listed as inhibitors; 340,000 tested, 0.4% active; AID 624288; gsp-mutant cells, cAMP HTRF, 30 min; control for the full effect not named in the record; active = falling curve of any shape with a large fitted effect; inconclusive = falling curve, mostly with a smaller effect; inactive = flat or rising curve; cell line not stated here;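 note: intracellular cAMP measured with PDE inhibitor Ro 20-1724 present during compound exposure; potency is the fitted concentration of half-maximal effect; % is set by controls: 0 for no effect and ±100 for the full control effect; nearly all actives have a fitted effect of over 65% in size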
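HTRF cAMP read-out (cAMP-d2 plus anti-cAMP antibody-K in lysis buffer, 30 min RT). Before lysis, cells are exposed to compounds with […] for 30 min at 37C in DPBS containing Ca/Mg, BSA and Tween 20.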
Six1-Eya2 inh: Six1/Eya2 interaction inhibition | Q15475+O00167 | AlphaScreen GST-Six1/His-Eya2 binding, biochemical; active compounds read low; control for the full effect not named in the record | activity change, % (test concentration not listed) | 360,000 tested, 0.56% active | AID 651725; in the data active = activity change below about -65%; inconclusive = about -30% to -65%; inactive = above about -30%; note: % is set by controls: 0 for no effect and ±100 for the full control effect
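AlphaScreen luminescence read after one hour at 37 °C in darkness. Pin-transferred compounds met GST-Six1 and His-Eya2 protein (5X stock 250 nM/500 nM) plus glutathione donor and Ni-chelate acceptor beads (5X, 50 ug/mL).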
D2 agonist: agonists of human D2 dopamine receptor (beta-arrestin); activation, % (no concentration beside the values); DiscoveRx PathHunter D2 beta-arrestin, luminescence, 90 min; 100% = 57 uM dopamine signal; 360,000 tested, 0.084% active; AID 624465; P14416; in the data active = activation above about 40%; inconclusive = about 15% to 40%; inactive = below about 15%; note: compound concentration not given in the record; the text of the record calls up to 30% inactive
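Agonist mode: compounds alone added to overnight-plated D2 PathHunter cells for 90 min at 37 C, with 57 uM final dopamine (EC100) defining full response. Beta-arrestin recruitment detected by chemiluminescent reagent, read after 1 h at ambient temperature.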
CtBP-E1A blk: blocks the CtBP interaction with E1A; AlphaScreen GST-E1A/His-CtBP binding, 1536-well; active compounds read low; control for the full effect not named in the record; activity change, % (concentration not given with the values); 340,000 tested, 0.49% active; in the data active means activity change below about -65%; inconclusive means about -30% to -65%; inactive means above about -30%; note: % is set by controls: 0 for no effect and ±100 for the full control effect
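Protein mix (5X: 125 nM each GST-E1A, His-CtBP) was incubated with pinned compound 2 h at 37 deg C in dark, in 50 mM Tris pH 8.0 buffer with 300 mM NaCl. Glutathione donor and nickel acceptor beads followed; AlphaScreen signal read after 1 h.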
Numbers without * were called inactive; ? = inconclusive; . = no result given; [ ] = remark or other dose. Outcome played no part in choosing rows; overall some 1.4% were active at least once.

SMILES | D2 potentiator | gsp agonist | gsp antag | Six1-Eya2 inh | D2 agonist | CtBP-E1A blk
CCN(CC(=O)NC1CCS(=O)(=O)C1)S(=O)(=O)c1ccc(Cl)cc1C(F)(F)F (configuration not stated) | -3 | 3%[15.4 µM] | 7% | -2 | -7.5 | 0
CC(C)OC(=O)c1ccc(NC(=O)Cn2c(-c3nonc3N)nc3ccccc32)cc1 | -1 | -6% | 4% | 3 | 0.1 | -3
CC(C)N(CC(N)=O)c1ncnc2sc(-c3ccccc3)cc12 | -4 | 6%[15.4 µM] | -17% | -13 | -2.6 | -7
CC(C)(C)c1csc(N/N=C/c2ccc(O)cc2)n1 | 3 | 23% | -24% | -12 | 2.3 | -5
CC(=O)Nc1ccc(NC(=O)C2c3ccccc3Oc3ccccc32)cc1 | 4 | -3%[15.4 µM] | 11% | 4 | -1.1 | 20
O=[N+]([O-])c1cc(Cl)cc(/C=N\Nc2ccccn2)c1O | -22 | -8% | 2% | -95* | -2.7 | -87*
c1ccc(-n2c(SCC3CCCCO3)nnc2-c2cccs2)cc1 (configuration not stated) | 2 | -5% | ? | -10 | -6.9 | -21
NC(=O)CN1CCN(c2nc(-c3ccc(F)cc3)cs2)CC1 | -9 | 5% | -1% | -2 | -1.7 | -2
CCN(C(=O)COC(=O)C(Cc1ccccc1)N1C(=O)c2ccccc2C1=O)C1CCS(=O)(=O)C1 (configuration not stated) | -10 | 8% | -9% | 9 | -3.2 | 4
COc1ccc(/C=C2/C(=O)N(c3cccc(F)c3)N=C2C)c(OC)c1 | -7 | -16% | 1% | 7 | -2.4 | -12
COc1ccc(-c2cc(C(F)(F)F)nc(N)n2)cc1 | -6 | -54%[inhibitor][15.4 µM] | -7% | 12 | -2.4 | 6
CC(=O)Nc1ccc(C2=NN(c3ccccc3)C(c3ccccc3)C2)cc1 (configuration not stated) | -1 | ? | 9% | 19 | -3.1 | 32
CC1(NC(=S)NCCO)CCS(=O)(=O)C1 (configuration not stated) | -9 | -19% | 11% | -7 | 1.0 | 4
O=C(OCCN=C1NS(=O)(=O)c2ccccc21)C1CC(=O)N(c2ccc3ccccc3c2)C1 (configuration not stated) | 4 | 3% | -4% | 1 | 1.4 | 4
CCNc1nc(SC(C)C(=O)OC)nc(N2CCOCC2)n1 (configuration not stated) | -1 | -48% | 0% | -1 | -0.3 | 3

Pulled by compound from the list above (three):
SMILES | D2 potentiator | gsp agonist | gsp antag | Six1-Eya2 inh | D2 agonist | CtBP-E1A blk
CC(C)(C)c1csc(N/N=C/c2ccc(O)cc2)n1 | 3 | 23% | -24% | -12 | 2.3 | -5
COc1ccc(-c2cc(C(F)(F)F)nc(N)n2)cc1 | -6 | -54%[inhibitor][15.4 µM] | -7% | 12 | -2.4 | 6
CC(C)OC(=O)c1ccc(NC(=O)Cn2c(-c3nonc3N)nc3ccccc32)cc1 | -1 | -6% | 4% | 3 | 0.1 | -3

Further results
SMILES | D2 potentiator | gsp agonist | gsp antag | Six1-Eya2 inh | D2 agonist | CtBP-E1A blk
Cc1ccc(SC(=O)COc2ccc(C)c(C)c2)cc1 | 18 | 13% | 1% | -1 | -1.4 | -2
CCN(CC)c1ccc(/C=N/N2C(C)CCCC2C)c(O)c1 (configuration not stated) | -5 | 1%[15.4 µM] | -1% | -22 | -6.1 | -16
N#CCC(=O)N/N=C/c1ccc(SCC(=O)Nc2ccccc2)o1 | -5 | -21% | -3% | -17 | -4.5 | .
COc1cc(/C=N/NC(=O)c2cccc(NC(=O)c3ccccc3C)c2)ccc1O | -1 | -2% | 0% | ? | 3.3 | ?
COc1cccc(NC(=O)C2CCOC2=O)c1 (configuration not stated) | -3 | -18% | 6% | 0 | -2.5 | 9
Oc1ccc(/C=N\Nc2cc(N3CCOCC3)nc(N3CCOCC3)n2)c(O)c1 | -16 | 9% | -7% | ? | 2.9 | 0
Nc1nc(N)c(N=O)c(OCC2CCCCC2)n1 | 2 | . | -7% | -16 | -3.5 | -14
O=C(NCCCl)c1ccc(OCc2ccccc2)cc1Cl | -2 | -26% | 14% | -6 | -3.3 | 12
COc1ccc(OCCOCCN2CCc3ccccc3C2)cc1 | -52 | 3% | 6% | -3 | -1.8 | -3
COc1ccc(Cl)cc1NC(=O)CN1c2ccccc2CC1C (configuration not stated) | 2 | -15%[15.4 µM] | -35% | -17 | 5.3 | -14
O=c1nc(-c2ccccc2)c(-c2ccccc2)n[nH]1 | -7 | 17% | 0% | -28 | 6.5 | ?
CCOC(=O)c1c(S(=O)(=O)Nc2ccc(C)cn2)c(C)n(C)c1C | -1 | 15% | 11% | -1 | -1.0 | 0
Cc1ccc2[nH]c(=O)c(CN(CC3COCCO3)C(=O)Nc3ccccc3F)cc2c1 (configuration not stated) | -27 | -1%[15.4 µM] | -13% | 12 | -1.4 | -20
COc1cccc(OCCNC(=O)Nc2cc(F)c(F)cc2Cl)c1 | -5 | 10% | -21% | 7 | 1.5 | 4
Cc1ccc(C(=O)CSc2nnc(COc3cccc4cccnc34)o2)cc1 | -9 | -8% | ? | -10 | 0.2 | -8
CC1CC(C)(C)NC(=S)N1CCC(=O)N1CCN(c2ccccc2)CC1 (configuration not stated) | -2 | 13%[15.4 µM] | 11% | 1 | 6.4 | 5
Cc1cc(OCC(=O)OCC(=O)N(Cc2ccccc2)C(C)(C)C)ccc1Cl | 4 | -92%[inhibitor] | . | 3 | 1.1 | 0
COc1ccc(C)cc1NC(=O)c1nnn(Cc2cccc(C(F)(F)F)c2)c1N | 2 | -7%[15.4 µM] | 4% | 10 | 3.9 | 0
COc1ccc(NC(=O)c2ccc3c(c2)S(=O)(=O)c2ccccc2C3=O)cc1 | -3 | -5% | 4% | -13 | 2.4 | 2
CCOc1ccc(N(C)S(=O)(=O)c2cc(-c3cc(C)no3)ccc2CC)cc1 | 10 | 34% | -7% | 6 | -1.3 | 26
CC(C)(C)n1nnnc1C(c1ccc(C#N)cc1)N1CCCC2(CCCCC2)C1 (configuration not stated) | -2 | -46%[inhibitor] | 1% | 0 | 2.1 | 4
CO[C@H](C(=O)N(C)C[C@@H]1OCc2ccccc2-c2c(n(C)c3ccccc23)C(=O)N([C@H](C)CO)C[C@@H]1C)c1ccccc1 | -3 | -15% | . | 3 | -0.6 | -13
Cc1ccc(S(=O)(=O)N2[C@@H](c3ccccc3)C(C(=O)O)=CC[C@H]2c2ccc3c(c2)OCO3)cc1 | -13 | ? | -7% | 1 | -1.1 | .
COc1cccc(C(O)c2nc(/C=C/c3ccc(C(F)(F)F)cc3)cs2)c1 (configuration not stated) | -2 | . | . | 10 | 2.6 | -2
CCOc1ccccc1CNC(=O)Cn1c(=O)oc2ccccc21 | -9 | -68%[inhibitor] | 8% | 9 | -4.9 | -4
CC(=O)c1ccc2c(c1)N(Cc1ccccc1)C(=O)C(C)S2 (configuration not stated) | -6 | . | . | 1 | 5.6 | 4
Cc1ccc(Nc2ncc3c(=O)[nH][nH]c(=O)c3n2)cc1 | -5 | -7% | -17% | ? | -2.2 | -27
O=C1[C@@H]2Cc3c([nH]c4ccccc34)C(c3ccccc3)N2C(=O)CN1C1CC1 (some centres not stated) | -5 | -2%[15.4 µM] | -3% | 3 | -2.6 | 1
COc1ccc(S(=O)(=O)N2CCCCCC2)cc1C(=O)N(C)Cc1ccco1 | -25 | 1% | -30% | 21 | -5.4 | 4
O=C1NC(=O)C2(COC3(CCCC3)OC2)S1 | 15 | 2% | 15% | 25 | -1.4 | 1
CCOC(=O)c1ccc(NC(=O)NCc2ccccc2)cc1 | -4 | 10% | -12% | 1 | -1.7 | -1
COc1ccc([C@@H]2CC=C(C(=O)O)[C@H](c3cccc(Cl)c3)N2S(=O)(=O)c2ccc(Cl)cc2)cc1 | -10 | -14% | -14% | -8 | -1.2 | .
COc1ccc(/C=C(\NC(=O)c2ccccc2)C(=O)N2CCC(C)CC2)cc1 | -2 | -16%[15.4 µM] | 2% | 1 | 2.6 | 0
O=C(O)CSC1c2ccccc2C(=O)N1c1ccccc1 (configuration not stated) | -6 | -13% | 6% | 8 | -0.9 | 5
COc1ccc(Nc2nnc(-c3ccc(N4CCOCC4)c([N+](=O)[O-])c3)c3ccccc23)cc1 | -15 | -16% | 6% | -4 | -4.8 | 5
Cc1ccc(C(=O)C(C)OC(=O)CCN=C2NS(=O)(=O)c3ccccc32)cc1 (configuration not stated) | -30 | -7%[15.4 µM] | -7% | 0 | -1.3 | 9
CC(=O)Cn1c(=O)c2c(nc3n2CCCN3Cc2ccccc2)n(C)c1=O | -6 | 2% | -14% | 6 | -4.7 | .
COc1ccc(Cn2nnnc2C(c2cccs2)N2CCSCC2)cc1 (configuration not stated) | -13 | ? | -8% | -4 | -0.5 | 4
C/C(=N\NC(=O)C1CC1)c1ccc(N2CCOCC2)cc1 | -37 | ? | -3% | -12 | 10.0 | -10
COc1nc(C#N)nc(N(C)C)n1 | -12 | -5% | 11% | 22 | -1.6 | 6
Cc1c(NC(=O)CN2C(=O)c3ccccc3S2(=O)=O)c(=O)n(-c2ccccc2)n1C | -1 | 1% | 8% | -1 | 0.3 | 1
Cc1cccc(C(=O)OCC(=O)N2CCc3ccccc3C2)c1O | -12 | -2% | 8% | 9 | -2.8 | 9
CCN(CC(=O)NCc1cccs1)C(=O)c1ccccc1Cl | 2 | 2%[15.4 µM] | 4% | -6 | 4.2 | 9
CN(CC(=O)Nc1cccc2ccccc12)C(=O)c1ccc(NC(=O)CC#N)cc1 | 0 | 25% | 1% | -2 | 3.2 | -1
COc1ccccc1OCCOCCOc1ccccc1Cl | -8 | -23% | 4% | 46 | -0.9 | 21
CCOc1ccc(NS(=O)(=O)c2cc(NC(=O)c3ccc(C)cc3)ccc2Cl)cc1 | 4 | 26% | 10% | -4 | 1.9 | 3
COC(=O)CCC(=O)Nc1cccc2c(NC(=O)CCC(=O)OC)cccc12 | -3 | -2% | -4% | -3 | -2.0 | 7
c1ccc(CSc2nnnn2-c2ccccc2)cc1 | 6 | -3% | -1% | 23 | 2.2 | 8
[N-]=[N+]=NC[C@H](Cc1ccccc1)N1CCN(Cc2ccccc2)CCC1=O | 3 | -7% | 4% | 1 | 3.5 | 1
Cc1ccc(S(=O)(=O)c2c(N)n(/N=C/c3ccco3)c3nc4ccccc4nc23)cc1 | 0 | 12% | -7% | -6 | -3.0 | -4
COc1ccc(NC(=O)C2CCCN(c3nc(C)cc(C)n3)C2)cc1 (configuration not stated) | -3 | -12% | 2% | 4 | -4.9 | 15
CC1C(=O)NN=C1C(=O)N/N=C/c1cccs1 (configuration not stated) | 0 | -60%[inhibitor] | -11% | -5 | -2.4 | .
COc1ccc(-n2cnnc2SCc2cnc(-c3ccccc3)s2)cc1 | -12 | ? | -15% | -2 | -2.9 | 5
CCOC(=O)C1CCCN(C(=O)C2CC(=O)N(c3ccc(C)cc3)C2)C1 (configuration not stated) | -4 | -21% | 1% | 5 | -0.3 | 3
